eIF4H FP inh – inhibitors of RNA binding by human eIF4H. inhibition, % at 35 µM. eIF4H fluorescence polarization binding assay. Q15056. 290,000 tested, 0.94% active. AID 2012;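 active = 50% or more with normal probe brightness, or confirmed in later tests; inconclusive = above 50% with abnormal brightness, or retests that disagree; inactive = below 50% or failed in later tests; about a fifth of its hits are not listed in these tables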;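 also: calls also rest on retests at 20 µM and on dose response follow-up; 0% = protein and probe with vehicle and 100% = probe without protein; strong numbers were not always called active; many hits fall short of the cut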
UUG fidelity – modulators of start codon recognition fidelity in yeast; S. cerevisiae UUG-firefly luciferase reporter, luminescence/redox ratio; 350,000 tested, 0.13% active; activity score, % at 18.7 µM; AID 602363;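 active = replicate mean at a twofold rise or more, about +100% in these data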;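 also: firefly luciferase made from a UUG start codon reports start codon fidelity; reporter light over untreated wells divided by growth signal over untreated wells; some hits fall short of that in this replicate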
PABP polyA inh – PABP-poly(A) binding inhibition; P11940; AID 2014; inhibition, % at 35 µM; 290,000 tested, 1% active; PABP-poly(A) RNA binding, fluorescence polarization;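 active = 50% or more with normal probe brightness, or confirmed in later tests; inconclusive = above 50% with abnormal brightness, or retests that disagree; inactive = below 50% or failed in later tests; about a fifth of its hits are not listed in these tables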;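 also: calls also rest on retests at 20 µM and on dose response follow-up; controls were probe without protein and protein plus probe with vehicle; some compounds called inactive have numbers as strong as hits; many hits fall short of the cut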
Target sequence (P11940 whole entry, looked up): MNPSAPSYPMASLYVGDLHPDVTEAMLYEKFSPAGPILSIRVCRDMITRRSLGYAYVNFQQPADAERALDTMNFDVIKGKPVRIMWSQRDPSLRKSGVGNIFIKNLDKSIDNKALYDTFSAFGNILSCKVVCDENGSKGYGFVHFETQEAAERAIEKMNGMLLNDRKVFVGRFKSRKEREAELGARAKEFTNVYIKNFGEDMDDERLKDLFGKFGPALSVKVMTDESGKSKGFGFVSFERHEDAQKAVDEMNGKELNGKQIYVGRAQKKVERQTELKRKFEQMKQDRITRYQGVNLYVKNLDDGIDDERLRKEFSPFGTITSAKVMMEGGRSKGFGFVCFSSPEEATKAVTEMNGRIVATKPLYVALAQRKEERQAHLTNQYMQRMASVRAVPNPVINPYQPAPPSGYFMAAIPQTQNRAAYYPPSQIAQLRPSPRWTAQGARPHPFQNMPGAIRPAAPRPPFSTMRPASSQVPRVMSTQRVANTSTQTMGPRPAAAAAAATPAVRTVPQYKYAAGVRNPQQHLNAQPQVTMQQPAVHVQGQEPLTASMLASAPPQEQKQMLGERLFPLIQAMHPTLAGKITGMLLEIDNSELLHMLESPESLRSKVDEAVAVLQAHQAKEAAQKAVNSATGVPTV
MT1-MMP act inh – blocks activation of human MT1-MMP; HT1080 RFP-PRO-GFP cells, GFP/RFP ratio fluorescence, overnight; percent of plate control window, DMSO zero; GFP/RFP ratio change, % at 20 µM; 360,000 tested, 0.061% active;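 active = GFP/RFP ratio change of at least 30% with cell ATP level not reduced by more than half and red fluorescence within 50% of control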; also: strong numbers were not always called active
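Assay system: HT1080 RFP-PRO-GFP cells | Dosing: 20 µM single dose, 1% DMSO | Incubation: Cells overnight before dosing, compound overnight, 37 °C, 5% CO2 | Evaluation: GFP/RFP fluorescence ratio | Control set: DMSO-only wells and HT1080 RFP-L50D-GFP cell wells as references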
HIV Env fusion – blocks HIV Env-driven cell-cell fusion; HeLa-JRFL Env/CEM21 cell fusion, luciferase; inhibition, % at 12.3 µM; 360,000 tested, 1.1% active;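 active = mean replicate inhibition score of at least 50 and every replicate individually at or above 50; inconclusive = only one of the two criteria met; inactive = mean below 50 and not all replicates reaching 50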;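 also: 0% = plate neutral controls and 100% = maraviroc near 300 nM; one replicate is shown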
CSC inhib – cancer stem cell inhibition; AID 2717; inhibition, % at 7.5 µM; 300,000 tested, 1.1% active; cancer stem cell-like cells viability, luminescence;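 active = mean at 75% or more and at least half the replicates too; inconclusive = mean and replicates disagree; tested in HMLE shEcad cells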;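 also: 0% = median of negative and 100% = median of positive control wells; the first replicate is given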
Rce1 inhib – blocks yeast Ras-converting enzyme. Q03530. yeast membranes, quenched prenylated peptide cleavage fluorescence. 290,000 tested, 0.27% active. calls only;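 active = fall in fluorescence gain of 50% or more versus controls, with final raw signal at or below 3038400; inconclusive = same 50% fall but final raw signal above 3038400; inactive = fall in fluorescence gain under 50%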;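 also: plate controls were neutral control wells for no effect and wells lacking membranes for full effect; tested at 10 µM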
eIF4H FP inh retest – recorded beside eIF4H FP inh, whose call it bears; inhibition, %; compound at 20 µM; confirmation average;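 mean of two retest wells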
PABP polyA inh retest – second read-out of PABP polyA inh, no call of its own (marks repeat the call); inhibition, %; compound at 20 µM; confirmation repeats;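 mean of two retest wells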
MT1-MMP act inh RFP – also measured in MT1-MMP act inh; calls as there; RFP signal change, %; measured here: RFP expression control read;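 0 = vehicle wells; hits needed this value within 50% of zero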
Numbers without * were called inactive; i = inactive; ? = inconclusive; · = not tested or not shown. A portion of the library; the hit share may differ from the screen's.

SMILES	eIF4H FP inh	UUG fidelity	PABP polyA inh	MT1-MMP act inh	MT1-MMP act inh RFP	HIV Env fusion	CSC inhib	Rce1 inhib	others
CNc1ccccc1C(=O)OC(C)C(=O)Nc1ccc(Cl)cn1 (centres undefined)	7	-5	0	4	1	·	1	i
CCOC(=O)N1CCN(C(=O)C2CCN(S(=O)(=O)c3cc(Cl)ccc3OCC)CC2)CC1	0	7	4	2	-4	-1	-9	i
CC(=O)Nc1c(NC(=O)CC#N)[nH]c2c(c1=O)c(=O)n(C)c(=O)n2C	-8	·	-2	-7	0	-6	-2	i
CCN(C(=O)Cn1c(=O)oc2ccccc21)c1cccc(C)c1	-4	-1	-3	1	3	14	-6	i
COc1ccccc1C1C(C(N)=O)=C(C)Nc2nc(CCCO)nn21 (centres undefined)	-2	-12	1	-4	3	-4	-4	i
COc1ccccc1/C=C(/C(=O)NCCCn1ccnc1)c1ccccc1	-2	3	-12	-1	2	17	-11	i
CC(C)CCn1c(=O)c2ccccc2n2c(CN3C(=O)NC4(CCC(C)CC4)C3=O)nnc12 (centres undefined)	-4	-3	0	-5	-9	19	23	i
COCCCNC(=O)c1ccc2c(=O)n(Cc3ccc(OC)cc3)c(=O)[nH]c2c1	4	·	14	5	-4	-4	-7	i
COc1ccccc1C(=O)NC(=O)COC(=O)CNC(=O)c1ccc(Cl)c([N+](=O)[O-])c1	·	-12	·	1	0	-28	-1	i
O=C(Nc1cccc2c1CCCC2)c1cc([N+](=O)[O-])ccc1Cl	-1	·	-16	-8	-3	·	-10	i
COc1ccccc1CNC(=O)CN1C(=O)NC(C)(c2ccc(C)cc2)C1=O (centres undefined)	0	-6	7	1	1	2	29	i
Cc1ccc(NC(=O)CSc2ccc(-c3cccnc3)nn2)c(C)c1	12	-7	1	3	1	4	-2	i
CCOC(=O)c1cnc(=O)[nH]c1C	-2	·	2	·	·	·	6	i
Cc1ccc(O)c(NC(=O)C2CC(c3c(F)cccc3Cl)=NO2)c1 (centres undefined)	2	-5	4	3	-1	-36	30	i
O=C1CCC(C(=O)N2CCCCO2)CN1Cc1cccc(F)c1 (centres undefined)	-8	-6	16	2	4	3	-4	i
CC[n+]1c(/C=C2\Sc3ccccc3N2C)ccc2cccc(C)c21	22	46	-37	-53	39	77*	·	i
COC(=O)c1[nH]c2ccccc2c1NC(=O)CN1CCN(C(=O)c2ccco2)CC1	-1	0	5	5	4	·	-14	i
CN(C)S(=O)(=O)c1ccc2nnn(O)c2c1	-8	-4	-6	0	2	1	-5	i
C/C(=N\NC(=O)c1ccc(CN2CCOCC2)cc1)c1ccc(NC(=O)c2ccccc2)cc1	4	-11	2	5	3	-8	-16	i
Cc1ccc(S(=O)(=O)c2nc(S(C)(=O)=O)sc2N2CCC3(CC2)OCCO3)cc1	-5	25	-10	-5	-5	7	-2	i
COCCNC(=O)c1ccc2c3n(nc2c1)-c1ccc(Cl)cc1CO3	-14	-8	-7	-1	0	-134	25	i
O=C(N=Nc1c(O)[nH]c2ccccc12)c1cc(NS(=O)(=O)c2cccs2)cc(NS(=O)(=O)c2cccs2)c1	9	·	-6	16	24	15	7	i
Cn1ccnc1SCC(=O)N1CCc2ccccc21	-1	-21	5	-1	2	-30	-2	i
O=c1c2ccccc2oc2cc(OCc3ccc(F)cc3)cc(O)c12	-5	-1	-2	1	2	6	11	i
CC(C)N1CCN(Cc2ccc3c(c2)Cc2ccccc2-3)CC1CCO (centres undefined)	-11	-7	3	1	2	-2	36	i
O=C1NC(=O)C(Cc2cccc(Oc3ccccc3)c2)S1 (centres undefined)	-2	0	-7	-1	3	-3	8	i
Cc1nn2c(COc3ccc(NC(=O)c4ccccc4Cl)cc3)nnc2c2ccccc12	-6	-5	-5	-3	-7	-17	90*	i
Cc1cc(C)c(C#N)c(SCC2COc3ccccc3O2)n1 (centres undefined)	-14	-10	-6	-2	-4	·	5	i
CC(=O)c1c(C)nc2nonc2c1N	-3	·	-6	1	3	·	-5	i
Cc1ccc(/C=N/Nc2cn[nH]c(=O)n2)o1	?	·	?	14	13	-30	-2	i
CSc1cccc(NC(=O)CN(c2ccc(C)cc2C)S(C)(=O)=O)c1	-5	·	-10	-2	-6	·	-8	i
O=C(CCN1CCCCC1)N/N=C/c1c[nH]c2ccccc12	-6	·	8	-1	1	-1	-18	i
CCn1c(SCC(=O)N/N=C/C=C\c2ccccc2[N+](=O)[O-])nc2ccccc21	-10	-16	2	0	1	32	4	i
N#C/C(=C/c1ccc(CNS(=O)(=O)c2ccccc2)o1)C(N)=O	13	-9	2	2	2	3	-8	i
Cc1cc(C)c(C)c(OCCCCn2cnc3ccccc3c2=O)c1	-3	-10	-2	-5	-3	36	-5	i
Oc1ccccc1-c1cc(C(F)(F)F)nc(-c2ccccc2)n1	15	-13	30	-5	0	37	-12	i
Cc1cc(C(C)(C)C)cc(C)c1S(=O)(=O)N1CCN(C(=O)c2cc([N+](=O)[O-])c[nH]c2=O)CC1	-3	-15	22	-1	-9	0	-16	i
CSCCC(NC(=O)/C(=C/c1ccc2c(c1)OCO2)NC(=O)c1cccc([N+](=O)[O-])c1)C(=O)O (centres undefined)	-5	1	4	-1	2	16	-6	i
COc1ccc(NC(=O)CN(C)CC(=O)Nc2cccc(F)c2)cc1Cl	-4	·	12	6	-3	2	-8	i
OCC1(Cc2ccc(F)cc2F)CCCN(CCCc2ccccc2)C1 (centres undefined)	7	-25	0	9	8	-22	8	i
COc1cc(C(=O)N(c2ccc(C)c(C)c2)C2C=CS(=O)(=O)C2)cc(OC)c1OC (centres undefined)	1	·	3	0	4	6	-5	i
Cc1cc(NC(=O)C(C)SCC(=O)OCC(=O)N(C)c2ccccc2)no1 (centres undefined)	·	-9	·	0	1	-1	2	i
COc1ccc([C@H]2C[C@H](O)[C@@H](n3cc(-c4ccc(F)cc4)nn3)CN2Cc2cccs2)cc1	·	0	·	-2	-13	8	·	·
CCCn1c(Cc2ccccc2)n[nH]c1=S	-3	·	-5	1	3	·	-13	i
O=C(COC(=O)Cc1ccc(Cl)cc1)Nc1ccc(OC(F)F)cc1	-7	·	10	4	8	28	·	i
CCC(C)c1ccc(S(=O)(=O)N2CCN(C(C)C(=O)NC3CCCC3)CC2)cc1 (centres undefined)	·	2	·	-4	-11	8	·	·
CCOCCCn1c(SCC(=O)NC2CCCCC2)nc2ccccc2c1=O	·	2	·	2	5	-10	·	·
CNc1snc(C)c1C(=O)OC(C)C(=O)Nc1cccc(C)c1 (centres undefined)	·	-3	·	-5	-15	10	-14	·
CC(=O)c1cccc(NC(=O)c2cc(-c3ccco3)on2)c1	-8	-19	4	4	8	22	6	i
COc1cccc(-c2cc(C(=O)N3CCCCCC3)no2)c1	-1	-48	4	2	2	-353	2	i
Cc1cccc(Nc2nc(NCCO)nc(N3CCCC3)n2)c1	·	-2	·	4	-3	-15	-4	i
CCOc1ccc(S(=O)(=O)N2CCN(C(=O)c3cc4c(s3)CCCC4)CC2)cc1	-6	-4	-2	5	-14	-10	-4	i
COc1ccc2[nH]c3c(C)c4ccncc4c(C)c3c2c1	29	17	42	-15	-13	·	-5	·
CC(=O)c1c(C)nc(-c2ccccc2)nc1NC(=O)C(C)C	0	-11	-5	2	1	·	-9	i
c1ccc(-c2nc3ccccc3[nH]2)cc1	5	-24	2	0	0	-23	-4	i
CCOC(CNC(=O)Cn1nc(Cc2ccncc2)c2ccccc2c1=O)OCC	-16	-16	-13	4	3	2	-13	i
O=C(NNC1=Nc2cccc3cccc1c23)c1ccc(Br)cc1	15	·	-4	-80	-1	19	21	i
COc1ccccc1NC(=O)CC1C(=O)NCCN1C(=O)Nc1ccc(Cl)c(Cl)c1 (centres undefined)	-2	9	-13	3	2	-49	14	i
COc1ccc(OC)c(/C=C/C(=O)OCC(=O)Nc2nnc(-c3ccccc3)o2)c1	·	2	·	0	1	0	·	·
CC1CCCC(O)(C(C(=O)O)c2ccccc2)C1 (centres undefined)	·	-28	·	-2	-1	-19	·	·
(further entries)
SMILES	eIF4H FP inh	UUG fidelity	PABP polyA inh	MT1-MMP act inh	MT1-MMP act inh RFP	HIV Env fusion	CSC inhib	Rce1 inhib	others
COc1ccccc1NC(=O)CN1CCC(n2c(C)nc3cc(F)ccc32)CC1	3	-16	-13	-4	-5	33	-2	i
Cc1ccsc1C(=O)OCc1nc2ccccc2c(=O)[nH]1	-12	-12	-8	3	-1	-125	·	i
COc1ccc([N+](=O)[O-])cc1NC(=O)c1csc(C)c1	8	-12	10	-5	0	-13	4	i
COc1cc(NC(=S)NCc2ccco2)cc(OC)c1	-2	-1	31	-4	2	·	-13	i
O=C(COC(=O)c1ccccc1OCc1ccccc1Cl)NC1CCS(=O)(=O)C1 (centres undefined)	·	2	·	-5	-2	·	7	·
Cc1ccc(NC(=O)Nc2ccc(F)cc2F)c(OC(F)F)c1	-5	3	2	3	-2	-7	·	i
CCCn1c(SCC(=O)NCc2ccco2)nnc1C(C)C	11	-11	-4	-4	0	-41	-14	i
COC(=O)CCC(=O)Nc1cccc(Cl)c1	-5	-22	16	0	-1	·	14	i
Cc1cn(C2OC[C@@H](O)[C@@H]2CO)c(=O)[nH]c1=O (some centres undefined)	2	-9	-2	0	-3	-8	-12	i
CC(=O)NC12CC3CC(C1)CC(C(=O)OCC(=O)Nc1ncc(Cl)c(C)c1Cl)(C3)C2	42	1	50	-5	5	-23	-5	·	eIF4H FP inh retest=30;PABP polyA inh retest=37
O=S(=O)(/N=C(/c1ccc(F)cc1)N1CCCCC1)c1ccc(Cl)cc1	-7	-9	-7	1	2	-4	0	i
COc1ccc(CNc2cc(C)ccn2)cc1	6	-15	-4	0	2	-9	·	i
CCC(CC)C(=O)N(C)c1c(C)nc2c(OCc3ccc(OC(F)F)cc3)cccn12	·	-24	·	-3	-5	14	·	·
Cc1nc2ccccn2c(=O)c1NC(=O)c1ccc2c(c1)OCO2	·	-9	·	1	3	i	·	·
O=C(NCCS(=O)(=O)N1CCN(c2ccccc2F)CC1)c1cccs1	·	-7	·	0	-2	-19	1	i
CCn1c(/C=N/Nc2ccc(C(=O)O)cc2)nc2ccccc21	2	-17	27	4	0	-4	-5	i
O=C(NC1CC1)c1ccc(C2SCC(=O)N2Cc2ccccc2)cc1 (centres undefined)	-8	·	-4	0	-1	5	-1	i
O=S(=O)(Nc1cccc(-c2cn3c(n2)SCC3)c1)c1ccccc1F	-8	-2	-4	-2	0	i	10	i
CC(=O)N1CCN(C(=O)COC(=O)/C=C/c2ccc(C(F)(F)F)cc2)CC1	·	-3	·	4	0	-3	1	·
CCOc1ccc(NC(=O)CCC(=O)N/N=C(\C)c2cccs2)cc1	-21	-29	2	3	6	4	·	i
Cc1ccc(C(=O)NCCc2nnc3ccc(SCC(=O)Nc4ccccc4C)nn23)cc1	-10	·	-19	5	5	-54	-2	i
CCN(CC)S(=O)(=O)c1cccc(NC(=O)/C=C/c2ccc([N+](=O)[O-])cc2)c1	-4	-17	-13	4	-6	19	-3	i

Sorted by length of the SMILES (rising): part of the list above
SMILES	eIF4H FP inh	UUG fidelity	PABP polyA inh	MT1-MMP act inh	MT1-MMP act inh RFP	HIV Env fusion	CSC inhib	Rce1 inhib	others
CCn1c(/C=N/Nc2ccc(C(=O)O)cc2)nc2ccccc21	2	-17	27	4	0	-4	-5	i
O=C(NC1CC1)c1ccc(C2SCC(=O)N2Cc2ccccc2)cc1 (centres undefined)	-8	·	-4	0	-1	5	-1	i
CC(=O)N1CCN(C(=O)COC(=O)/C=C/c2ccc(C(F)(F)F)cc2)CC1	·	-3	·	4	0	-3	1	·
